FGF22 binding = FGF22 (human) thermal shift binding. Q9HCT0. recombinant FGF22 thermal shift, SYPRO orange fluorescence; percent of sucrose octasulfate shift, DMSO zero. calls only at 9.99 µM. 1.5% of 340,000 active. AID 651658;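 active = melting point raised past a set limit in the mean and every replicate; inconclusive = no clear call; three in four hits are not shown here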
Target sequence (Q9HCT0 whole entry, looked up): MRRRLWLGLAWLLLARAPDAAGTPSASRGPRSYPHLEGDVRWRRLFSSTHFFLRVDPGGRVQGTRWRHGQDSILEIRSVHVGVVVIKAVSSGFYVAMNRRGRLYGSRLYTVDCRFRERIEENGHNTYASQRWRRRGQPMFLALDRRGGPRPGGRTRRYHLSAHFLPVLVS
MLL AF4-AF9 inh = blocks AF4 peptide binding to human AF9; AlphaScreen, biotin-AF4 peptide binding to FLAG-AF9; inhibition, % at 10 µM; 0.47% of 350,000 active; AID 651704;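 active = every replicate reaching a set inhibition limit, whatever the replicate mean, cut at about 25% in these data; inconclusive = mean inhibition reaches that limit but some replicates miss it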;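 note: 0% = plate neutral control median and 100% = total signal loss; the record names both 10 and 1 µM as test concentration; the first replicate is given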
Target sequence (P42568 whole entry, looked up): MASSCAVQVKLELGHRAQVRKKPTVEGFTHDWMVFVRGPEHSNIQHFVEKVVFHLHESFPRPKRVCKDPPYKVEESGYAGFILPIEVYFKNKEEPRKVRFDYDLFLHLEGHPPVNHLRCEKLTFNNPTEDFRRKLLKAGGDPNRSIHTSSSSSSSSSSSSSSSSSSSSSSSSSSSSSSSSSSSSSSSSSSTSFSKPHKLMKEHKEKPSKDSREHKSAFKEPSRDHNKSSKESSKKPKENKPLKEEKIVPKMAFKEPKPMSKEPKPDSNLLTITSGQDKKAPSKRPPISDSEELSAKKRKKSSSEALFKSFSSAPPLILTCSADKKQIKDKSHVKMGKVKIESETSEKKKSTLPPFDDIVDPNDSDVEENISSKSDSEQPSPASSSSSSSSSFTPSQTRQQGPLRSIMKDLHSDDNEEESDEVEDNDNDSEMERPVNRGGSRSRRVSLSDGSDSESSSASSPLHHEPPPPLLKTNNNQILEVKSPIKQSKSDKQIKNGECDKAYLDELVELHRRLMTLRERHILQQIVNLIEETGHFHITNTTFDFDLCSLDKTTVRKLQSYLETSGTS
Numbers without * were called inactive; i = inactive; ? = inconclusive.

compound	FGF22 binding	MLL AF4-AF9 inh
CO[C@@H]1CN(C)C(=O)c2cc(NC(=O)Nc3ccccc3)ccc2OC[C@@H](C)N(CC2CC2)C[C@H]1C	i	-0.9
O=C(C[C@@H]1CC[C@@H](NS(=O)(=O)c2cccc(F)c2)[C@H](CO)O1)NCc1ccc2c(c1)OCO2	i	-1.4
C[C@@H]1CN([C@@H](C)CO)C(=O)CCCn2nncc2CO[C@H]1CN(C)C(=O)Nc1cccc(F)c1	i	1.0
C[C@@H]1CCCCO[C@@H](CN(C)C(=O)Cc2ccccc2)[C@@H](C)CN([C@@H](C)CO)C(=O)c2cc(NC(=O)Nc3ccccc3)ccc2O1	i	0.9
CC=Cc1ccc2n(c1=O)C[C@H]1[C@H](CO)[C@@H](C(=O)OC)N(Cc3ccccc3)[C@@H]21 (mixture of isomers)	i	-1.1
COc1ccc(C#Cc2ccc3c(c2)O[C@@H](CN(C)S(=O)(=O)c2ccccc2F)[C@H](C)CN([C@@H](C)CO)S3(=O)=O)cc1	i	-1.0
C[C@@H]1CN([C@@H](C)CO)C(=O)Cc2cc(NC(=O)CCN3CCOCC3)ccc2O[C@H]1CN(C)CC1CCCCC1	i	8.4
CCCC#Cc1cnc2c(c1)C(=O)N([C@H](C)CO)C[C@@H](C)[C@@H](CN(C)C(=O)c1cnccn1)O2	i	-5.4
COc1ccc(NC(=O)N[C@@H]2CC[C@H](CCn3cc(-c4ccccc4)nn3)O[C@H]2CO)cc1	i	-1.1
CC(C)CC#Cc1ccc2c(c1)O[C@H](CN(C)Cc1ccncc1)[C@H](C)CN([C@@H](C)CO)S2(=O)=O	i	3.1
CCCNC(=O)Nc1ccc2c(c1)OC[C@@H](C)N(CCC(F)(F)F)C[C@@H](C)[C@H](OC)CN(C)C2=O	i	-15
O=C(N[C@H]1CC[C@H](CCNS(=O)(=O)c2ccccc2Cl)O[C@@H]1CO)c1ccc(F)cc1	i	-1.3
COc1ccc(NC(=O)N(C)C[C@@H]2Oc3c(NC(=O)c4ccncc4)cccc3C(=O)N([C@@H](C)CO)C[C@H]2C)cc1	i	-7.7
O=C(c1ccccc1F)N1C[C@@H]2[C@H](c3ccccc31)[C@@H](CO)N2C(=O)C1CCCC1	i	-1.9
CCC(=O)Nc1ccc2c(c1)C(=O)N(C)[C@H]1CC[C@H](CC(=O)NC3CCCC3)O[C@H]1CO2	i	0.9
CO[C@H]1CN(C)C(=O)c2ccc(NC(=O)C3CCOCC3)cc2OC[C@H](C)N(Cc2cccnc2)C[C@@H]1C	i	0.9
COc1ccc([Si](C)(C)[C@H]2[C@H](CCn3cc([C@H](O)c4ccccc4)nn3)O[C@@]3(C(=O)N(Cc4cccc(N5CCOC5=O)c4)c4ccccc43)[C@@H]2C)cc1	i	-3.1
COc1ccccc1C(=O)N1C[C@H]2[C@@H](c3ccccc31)[C@@H](CO)N2CC1CCCC1	i	-1.2
C[C@@H]1CN([C@@H](C)CO)S(=O)(=O)c2ccc(C3=CCCC3)cc2O[C@H]1CN(C)C	i	0.7
C[C@@H]1CN([C@H](C)CO)S(=O)(=O)c2ccc(C#CC3CC3)cc2O[C@@H]1CN(C)C(=O)c1ccncc1	i	3.7
COc1ccc(S(=O)(=O)N(C)C[C@@H]2OCCCC[C@H](C)Oc3ccc(NC(=O)Nc4ccc5c(c4)OCO5)cc3C(=O)N([C@H](C)CO)C[C@H]2C)cc1	i	2.6
COc1ccc2c3c(n(C)c2c1)[C@H](CO)N(C(=O)Nc1cccc(F)c1)CC31CN(C)C1	i	22
C[C@@H]1CCCCO[C@@H](CN(C)CC2CC2)[C@@H](C)CN([C@H](C)CO)C(=O)c2cc(NC(=O)Nc3ccccc3)ccc2O1	i	7.0
Cc1ccc(S(=O)(=O)N(C)C[C@H]2Oc3ccc(NC(=O)Cn4cnnn4)cc3C(=O)N([C@H](C)CO)C[C@@H]2C)cc1	i	-1.7
O=C(N[C@H]1C=C[C@H](CC(=O)N2CCOCC2)O[C@H]1CO)c1cccc(F)c1	i	-1.2

3 entries from above in a different format:
C[C@@H]1CCCCO[C@@H](CN(C)CC2CC2)[C@@H](C)CN([C@H](C)CO)C(=O)c2cc(NC(=O)Nc3ccccc3)ccc2O1
- FGF22 binding = i
- MLL AF4-AF9 inh = 7.0

Cc1ccc(S(=O)(=O)N(C)C[C@H]2Oc3ccc(NC(=O)Cn4cnnn4)cc3C(=O)N([C@H](C)CO)C[C@@H]2C)cc1
- FGF22 binding = i
- MLL AF4-AF9 inh = -1.7

O=C(N[C@H]1C=C[C@H](CC(=O)N2CCOCC2)O[C@H]1CO)c1cccc(F)c1
- FGF22 binding = i
- MLL AF4-AF9 inh = -1.2

Later entries:
compound	FGF22 binding	MLL AF4-AF9 inh
CCCc1cn(CC[C@@H]2CC[C@@H](NC(=O)CCN3CCCCC3)[C@@H](CO)O2)nn1	i	0.3
C[C@H]1CN([C@@H](C)CO)S(=O)(=O)c2ccc(C3=CCCC3)cc2O[C@H]1CN(C)C(=O)c1cccnc1	i	-0.9
O=C(C[C@@H]1CC[C@@H]2[C@H](COC[C@H](O)CN2C(=O)Cc2ccccc2)O1)NC1CCC1	i	-2.1
COc1ccc(S(=O)(=O)N(C)C[C@H]2Oc3ncc(C#CC4(O)CCCC4)cc3C(=O)N([C@H](C)CO)C[C@H]2C)cc1	i	-3.9
CCC(=O)N1[C@@H](CO)[C@@H](c2ccc(C3=CCCC3)cc2)C12CN(C(=O)COC)C2	i	-3.7
COCC(=O)Nc1ccc2c(c1)C(=O)N(C)C[C@H](OC)[C@H](C)CN(CC1CC1)[C@H](C)CO2	i	0.3
Cc1noc(C)c1NC(=O)Nc1cccc2c1O[C@H](CN(C)Cc1ccc(C(=O)O)cc1)[C@@H](C)CN([C@@H](C)CO)C2=O	i	2.0
CC(C)NC(=O)N(C)C[C@H]1Oc2ccc(NS(C)(=O)=O)cc2C(=O)N([C@H](C)CO)C[C@H]1C	i	-1.8
CCS(=O)(=O)N1CC2(CN(C(=O)Nc3c(C)noc3C)[C@@H](CO)c3[nH]c4cc(OC)ccc4c32)C1	i	-1.4
CO[C@@H]1CN(C)C(=O)c2cc(NC(=O)C3CCC3)ccc2OC[C@H](C)N(C(=O)NC(C)C)C[C@H]1C	i	-0.7
COc1ccc(NC(=O)Nc2ccc3c(c2)C(=O)N([C@H](C)CO)C[C@@H](C)[C@@H](CN(C)C(=O)c2ccccc2)OCCCC[C@H](C)O3)cc1	i	0.9
CN1c2ccc(-c3ccccc3F)cc2[C@H]2[C@H](CCN2C(=O)Nc2ccc(F)cc2)[C@H]1CO	i	4.1
C[C@@H]1CN([C@H](C)CO)C(=O)Cc2cc(NC(=O)C3CCCCC3)ccc2O[C@@H]1CN(C)Cc1ccc(Oc2ccccc2)cc1	i	-3.4
O=C(C[C@@H]1CC[C@H]2[C@@H](COC[C@@H](O)CN2S(=O)(=O)c2ccc(F)cc2)O1)N[C@H]1CCN(Cc2ccccc2)C1	i	1.1
CC=Cc1ccc2n(c1=O)C[C@@H]1[C@@H](CO)[C@H](C(=O)NCC(F)(F)F)N(CCc3ccccc3)[C@H]21 (mixture of isomers)	i	4.0
C[C@@H]1CN([C@@H](C)CO)C(=O)c2cc(NC(=O)Nc3ccc4c(c3)OCO4)ccc2O[C@@H](C)CCCCO[C@@H]1CN(C)S(=O)(=O)c1cccs1	i	1.8
CC(C)NC(=O)N(C)C[C@@H]1Oc2cc(C3=CCCCC3)ccc2S(=O)(=O)N([C@@H](C)CO)C[C@@H]1C	i	4.4
CNC[C@@H]1OCCCC[C@@H](C)Oc2ccc(NC(=O)c3ccncc3)cc2C(=O)N([C@H](C)CO)C[C@H]1C	i	-1.3
Cc1cccc(S(=O)(=O)N2CCCCN3[C@@H](CO)[C@H](c4ccc(-c5ccccc5)cc4)[C@@H]3C2)c1	i	-1.5
O=S(=O)(c1ccc(F)cc1)N1CC[C@@H]2[C@@H](CO)Nc3ccc(Br)cc3[C@@H]21	i	1.0
C[C@H]1CN([C@@H](C)CO)C(=O)c2cc(NC(=O)Nc3cccc4ccccc34)ccc2O[C@H]1CN(C)C(=O)Nc1cccc2ccccc12	i	-1.5
COCc1cn(CC[C@H]2CC[C@@H](NC(=O)Nc3ccc4c(c3)OCO4)[C@@H](CO)O2)nn1	i	-2.5
COc1cccc(CN2[C@H](CO)[C@H]3c4ccccc4N(C(=O)c4ccncc4)C[C@H]32)c1	i	-0.5
C[C@@H]1CCCCO[C@@H](CN(C)S(=O)(=O)c2ccc(Cl)cc2)[C@@H](C)CN([C@@H](C)CO)C(=O)c2cc(NC(=O)Nc3ccc(F)cc3)ccc2O1	i	-2.7
O=C(CCN1CCCCC1)N[C@@H]1CC[C@@H](CC(=O)N2CCC(Cc3ccccc3)CC2)O[C@@H]1CO	i	2.1

Sorted by value in MLL AF4-AF9 inh (largest number first): some entries from above.
Molecule	MLL AF4-AF9 inh
C[C@@H]1CCCCO[C@@H](CN(C)CC2CC2)[C@@H](C)CN([C@H](C)CO)C(=O)c2cc(NC(=O)Nc3ccccc3)ccc2O1	7.0
CC=Cc1ccc2n(c1=O)C[C@@H]1[C@@H](CO)[C@H](C(=O)NCC(F)(F)F)N(CCc3ccccc3)[C@H]21 (mixture of isomers)	4.0
C[C@@H]1CN([C@H](C)CO)S(=O)(=O)c2ccc(C#CC3CC3)cc2O[C@@H]1CN(C)C(=O)c1ccncc1	3.7
C[C@@H]1CN([C@@H](C)CO)S(=O)(=O)c2ccc(C3=CCCC3)cc2O[C@H]1CN(C)C	0.7
C[C@H]1CN([C@@H](C)CO)C(=O)c2cc(NC(=O)Nc3cccc4ccccc34)ccc2O[C@H]1CN(C)C(=O)Nc1cccc2ccccc12	-1.5
CCCNC(=O)Nc1ccc2c(c1)OC[C@@H](C)N(CCC(F)(F)F)C[C@@H](C)[C@H](OC)CN(C)C2=O	-15

New compounds follow
compound	FGF22 binding	MLL AF4-AF9 inh
N#C[C@@H]1N[C@H](CO)[C@H]1c1ccc(-c2cccc(F)c2)cc1	i	-1.9
CC(C)NC(=O)N1C[C@@H]2[C@H](c3ccccc31)[C@@H](CO)N2C(=O)c1cccnc1	i	-0.2
CN(C)C(=O)[C@@H]1[C@@H](CO)[C@@H]2Cn3c(ccc(-c4ccccc4)c3=O)[C@@H]2N1C(=O)c1ccccn1	i	0.9
CCC(=O)N1CC2(CCN(C(=O)Nc3ccc(F)cc3)CC2)c2c([nH]c3cc(OC)ccc23)[C@H]1CO	i	7.1
C[C@H]1CN([C@@H](C)CO)C(=O)Cc2cc(N(C)C)ccc2O[C@@H]1CN(C)CC1CC1	i	-1.6
COc1ccc(CN(C)C[C@@H]2OCCCC[C@@H](C)Oc3ccc(NC(=O)CCC(F)(F)F)cc3C(=O)N([C@H](C)CO)C[C@@H]2C)cc1	i	-4.5
C[C@H](CO)N1C[C@H](C)[C@H](CN(C)Cc2ccccc2)OCCCC[C@H](C)Oc2ccc(NC(=O)Nc3cccc4ccccc34)cc2C1=O	i	0.9
N#C[C@@H]1[C@@H](c2ccc(C#Cc3cccc(F)c3)cc2)[C@@H](CO)N1C(=O)C1CCCC1	i	-4.0
C[C@H](O)C#Cc1ccc([C@H]2[C@@H](CO)N3CCCCN(C(=O)c4ccc5c(c4)OCO5)C[C@H]23)cc1	i	0.5
C[C@H](CO)N1C[C@H](C)[C@H](CN(C)S(=O)(=O)c2ccccc2)Oc2c(NC(=O)C3CCOCC3)cccc2C1=O	i	-1.1
C[C@@H]1CCCCO[C@H](CN(C)Cc2ccccc2)[C@H](C)CN([C@H](C)CO)C(=O)c2cc(NC(=O)Nc3cccc4ccccc34)ccc2O1	i	1.4
C[C@@H]1CN([C@H](C)CO)C(=O)c2cccc(NC(=O)C3CC3)c2O[C@@H]1CN(C)Cc1ccc(Oc2ccccc2)cc1	i	0.1
COc1cccc(-c2cnc3c(c2)C(=O)N([C@H](C)CO)C[C@H](C)[C@H](CN(C)S(=O)(=O)c2cn(C)cn2)O3)c1	i	-2.3
C[C@@H]1CN([C@@H](C)CO)S(=O)(=O)c2ccc(C#Cc3ccccn3)cc2O[C@H]1CN(C)Cc1cccc(F)c1	i	-0.3
CNC[C@H]1Oc2ccc(NC(=O)CCN3CCOCC3)cc2CC(=O)N([C@H](C)CO)C[C@@H]1C	i	-4.1
O=S(=O)(Cc1ccccc1)N1CCCCN2[C@@H](CO)[C@@H](c3ccc(-c4ccccc4)cc3)[C@@H]2C1	i	1.2
COc1ccc(S(=O)(=O)Nc2ccc3c(c2)C(=O)N([C@H](C)CO)C[C@H](C)[C@H](CN(C)S(=O)(=O)c2c(C)noc2C)OCCCC[C@H](C)O3)cc1	i	0.7
C[C@H](CO)N1C[C@H](C)[C@H](CN(C)Cc2ccccc2)OCCCC[C@H](C)Oc2ccc(NC(=O)Nc3ccc(C(F)(F)F)cc3)cc2C1=O	i	-0.1
COCCNC(=O)c1cc2c(c(-c3cccc(-c4cccc(F)c4)c3)n1)[C@H](CCO)N(S(=O)C(C)(C)C)C2 (some centres not stated)	i	-1.6
C=CC1c2cc(O)c(OC)cc2CCN1Cc1sc2ccccc2c1Cl (configuration not stated)	i	?
CO[C@@H]1CN(C)C(=O)c2ccc(NC(=O)c3ccccc3F)cc2OC[C@@H](C)N(C(C)=O)C[C@H]1C	i	-1.8
CC(C)NC(=O)Nc1cccc2c1O[C@H](CN(C)CC1CCCCC1)[C@H](C)CN([C@H](C)CO)C2=O	i	-3.6
CO[C@H]1CN(C)C(=O)c2cc(NC(=O)Nc3ccc(F)cc3)ccc2OC[C@@H](C)NC[C@H]1C	i	-6.7
CCC(=O)N1CC2(C1)[C@H](c1ccc(-c3ccc(C#N)cc3)cc1)[C@@H](CO)N2C(C)=O	i	-3.1
Cc1noc(C)c1NC(=O)N(C)C[C@H]1OCc2ccccc2-c2c(n(C)c3ccccc23)C(=O)N([C@@H](C)CO)C[C@@H]1C	i	-5.3
C[C@@H]1CN([C@H](C)CO)C(=O)c2cc(C#Cc3ccccc3F)cnc2O[C@@H]1CN(C)S(C)(=O)=O	i	-1.9
CC(C)NC(=O)N1C[C@H]2[C@@H](c3ccccc31)[C@H](CO)N2C(=O)Nc1ccc(F)cc1	i	-1.6

Compound activity: PubChem, Broad Institute

This is a subset. The share of hits here may be higher or lower than overall.
